# High-throughput results: PubChem BioAssay, National Center for Advancing Translational Sciences (NCATS)
# Anesthetic bind: qHTS Assay for Identification of Novel General Anesthetics; Ferritin light chain (Equus caballus), P02791; apoferritin/1-aminoanthracene competitive binding, fluorescence; Potency, µM (series often up to 77.5 µM), for the others: at the top dose activity change, negative = displacement, most hits filed as inhibitors; 0.074% of 350,000 active; note: potency is the fitted concentration of half-maximal effect; % is set by controls: 0 for no effect and ±100 for the full control effect; nearly all actives have a fitted effect of over 20% in size
# Target sequence (P02791 2-175 limits assumed): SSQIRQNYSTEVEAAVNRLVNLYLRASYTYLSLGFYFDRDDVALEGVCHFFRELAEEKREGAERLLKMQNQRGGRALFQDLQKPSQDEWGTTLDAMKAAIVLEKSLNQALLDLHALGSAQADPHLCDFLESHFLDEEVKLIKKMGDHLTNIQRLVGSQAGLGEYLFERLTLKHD
#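 Concentration-response curves derived by four-parameter Hill fitting of normalized fluorescence, where compounds displaced 1-AMA from 10 uM horse apoferritin following a brief 10 min room-temperature incubation; propofol titration acted as positive control.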
# Tb PGK inh: qHTS Assay to Find Inhibitors of Phosphoglycerate Kinase | Phosphoglycerate kinase, glycosomal (Trypanosoma brucei brucei), P07378 | PGK/GAPDH coupled, Kinase-Glo luminescence, 60 min | Potency, µM (doses to about 57.5 µM), inactives show at the highest dose activity change, negative = inhibition, hits mostly inhibitors | 0.043% of 380,000 active | AID 602233, 2012; note: potency is the fitted concentration of half-maximal effect; % is set by controls: 0 for no effect and ±100 for the full control effect; nearly all actives have a fitted effect of over 60% in size
#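 Recombinant glycosomal PGK reaction used 1,3-bisphosphoglycerate generated in-well by GAPDH (100nM final) in 100mM TEA pH 7.6, 5mM MgCl2, 0.01% Tween-20. After 60 minutes at room temperature, ATP was read by Kinase-Glo Plus luminescence end-point.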
# Pol iota inh: qHTS for Inhibitors of Polymerase Iota. 1% of 390,000 active. AID 588590, 2011. DNA polymerase iota (Homo sapiens), Q9UNA4. Pol iota fluorescent replication assay, 10 min. Potency, µM (doses to about 115 µM), for the others: at the highest dose activity, negative = inhibition, usual class: inhibitors; note: potency is the fitted concentration of half-maximal effect
#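 Fluorescent replication assay read twice, at 0 min and 10 min after adding 50 nM (final) substrate. Enzyme (10 nM) and compounds were first incubated 15 min at room temperature; enzyme-free buffer wells were negative controls.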
# BLM helicase inh: qHTS Assay for Inhibitors of Bloom's syndrome helicase (BLM); AID 2528, 2010; Potency, µM (doses to about 56.1 µM), inactives show top-dose activity change, negative = inhibition, most hits filed as inhibitors; recombinant BLM DNA unwinding, fluorescence dequenching; RecQ-like DNA helicase BLM (Homo sapiens), P54132; 0.2% of 350,000 active;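 note: potency is the fitted concentration of half-maximal effect; plate controls were vehicle for no effect and no enzyme for full effect; nearly all actives have a fitted effect of over 35% in size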
# RXFP1 antag: qHTS Assay for Antagonists of the Relaxin Receptor RXFP1. HEK293-RXFP1, relaxin-stimulated cAMP HTRF, 30 min; stronger effect = lower value. activity change, negative = inhibition, % at 57.5 µM. 0.59% of 350,000 active. AID 1259400, 2018;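 active = activity change of -60% or lower, but not beyond a set lower limit; inconclusive = change between -60% and -40%, or beyond the set limit; inactive = change above -40%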; note: % is set by controls: 0 for no effect and ±100 for the full control effect
# Pol kappa inh: qHTS for Inhibitors of Polymerase Kappa; Potency, µM (titrated, usually from 107 µM), without a hit: top-dose activity, negative = inhibition, most hits filed as inhibitors; purified Pol kappa, fluorescent DNA synthesis assay, 10 min; DNA polymerase kappa (Homo sapiens), Q9UBT6; 0.53% of 400,000 active; note: potency is the fitted concentration of half-maximal effect; % is set by controls: 0 for no effect and ±100 for the full control effect
# Target sequence (Q9UBT6 whole entry, looked up): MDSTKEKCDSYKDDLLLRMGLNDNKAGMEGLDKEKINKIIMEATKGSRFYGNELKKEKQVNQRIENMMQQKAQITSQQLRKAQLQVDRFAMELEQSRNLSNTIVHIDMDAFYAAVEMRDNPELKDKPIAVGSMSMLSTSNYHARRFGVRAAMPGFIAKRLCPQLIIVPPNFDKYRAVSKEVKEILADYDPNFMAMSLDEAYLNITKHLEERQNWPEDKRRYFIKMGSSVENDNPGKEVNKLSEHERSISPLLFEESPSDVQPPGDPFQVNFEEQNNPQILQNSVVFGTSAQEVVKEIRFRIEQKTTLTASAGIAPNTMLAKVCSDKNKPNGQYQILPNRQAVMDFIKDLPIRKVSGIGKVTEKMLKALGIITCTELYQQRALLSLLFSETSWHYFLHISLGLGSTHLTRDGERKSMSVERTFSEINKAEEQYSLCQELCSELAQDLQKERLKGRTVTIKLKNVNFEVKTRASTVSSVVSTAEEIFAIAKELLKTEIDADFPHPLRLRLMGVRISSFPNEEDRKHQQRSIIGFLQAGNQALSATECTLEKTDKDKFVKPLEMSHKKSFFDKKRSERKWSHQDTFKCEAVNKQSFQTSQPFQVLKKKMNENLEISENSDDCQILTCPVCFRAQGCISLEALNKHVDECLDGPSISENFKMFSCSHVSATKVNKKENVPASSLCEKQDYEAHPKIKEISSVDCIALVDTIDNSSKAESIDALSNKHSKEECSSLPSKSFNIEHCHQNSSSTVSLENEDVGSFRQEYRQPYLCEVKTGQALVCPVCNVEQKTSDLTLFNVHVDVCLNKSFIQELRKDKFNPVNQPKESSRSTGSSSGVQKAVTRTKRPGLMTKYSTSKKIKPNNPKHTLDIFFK
#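 Kinetic fluorescence screen: compound preincubated 15 min RT with 10 nM enzyme; 50 nM substrate (final) initiates; reads at 0/10 min.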
# Starred values were filed as active, the others as inactive; i = inactive; ? = inconclusive; / = not tested or not shown; & = joins results of further samples; [ ] = remark or other dose. Unless noted, calls come from the whole dose curve; as a rule, active = well fitted curve in the direction sought with a large enough effect; inconclusive = small, poorly fitted or top-dose-only effect, or another doubt; inactive = no such curve, though single readings can be large; an effect the other way counts as inactive or inconclusive. The list is partial; count on the stated rates, not on these rows.
SMILES,Anesthetic bind,Tb PGK inh,Pol iota inh,BLM helicase inh,RXFP1 antag,Pol kappa inh
COC(=O)/C=C/C(C)=C/C=C/C(C)=C/C=C/C=C(C)/C=C/C=C(C)/C=C/C(=O)O,-16.2%,/,/,-17.3%,/,31.6µM*
O=C(COC(=O)/C=C/c1ccccc1[N+](=O)[O-])NCc1ccco1,/,-9.9%,-13.4%,/,-11.1,-3.9%
O=C(Nc1ccc2oc(=O)ccc2c1)c1ccc(-c2ccccc2[N+](=O)[O-])o1,-5.9%,-1.2%,72.3%[activator],-26.3%,-17.9,-12.9%
Cc1c(C(=O)Nc2ccc3c(c2)OCO3)sc2ncn(CC(=O)N3CC(C)CC(C)C3)c(=O)c12 (stereo not given),-5.5%,1.2%,17.1%,-2.2%,-0.7,-6.1%
COC(=O)[C@H](C)NC(=O)NCc1ccco1,-18.0%,3.7%,4.4%[58.9 µM],-2.5%,-1.2,-8.5%
Cc1sc2nc3c4ccccc4c(NCc4ccco4)nn3c(=O)c2c1C,-6.7%,1.5%,-1.2%,-13.5%,13.3,-19.2%
NS(=O)(=O)c1ccc(CNC(=O)Cc2ccc(S(=O)(=O)N3CCOCC3)s2)cc1,/,-1.9%,12.9%,/,?,3.9%
NS(=O)(=O)c1ccc(N2CCN(C(=O)C3COc4ccccc4O3)CC2)nc1 (stereo not given),/,i,?,/,-15.5,-15.9%
Oc1cc(Cl)cc(Cl)c1Cl,/,-9.5%,20.8%,/,/,-15.1%
C=CCn1c(SCC(=O)Nc2ccc(F)cc2)nc2cc(C(=O)O)ccc2c1=O,-6.0%,7.2%,-5.9%,-6.3%,-4.9,-9.8%
CN(Cc1ccccc1)C(=O)COC(=O)/C=C/c1ccco1,-15.9%,-24.7%,?,20µM*,-11.9,?
O=C(CSCc1ccccc1Br)N/N=C/c1ccc(OCC(=O)N2CCCCC2)cc1,?,-0.6%,2.1%,-2.6%,9.9,-17.3%
Cc1cc(O)c(C=O)c2c1C(=O)Oc1c(C)c(O)c3c(c1O2)C(O)OC3=O (stereo not given),-8.2%,/,/,38.3%[activator],/,10µM*
O=C(O)CCNC(=O)c1ccccc1,-4.0%,-0.6%,-13.0%,3.9%&-8.6%,-8.7,-8.3%
Cc1ccc(C2(c3noc(CN(C)Cc4cccnc4)n3)CCCC2)cc1,-20.9%,-5.9%,23.0%,-9.4%,-5.9,-2.0%
O=c1c(-c2ccc(O)cc2)coc2cc(O)ccc12,/,-7.1%,-6.8%[58.9 µM],-2.1%&-4.4%&0.9%&-5.0%,/,-9.4%[60.1 µM]
COc1cc(NC(=O)c2ccc(Br)o2)ccc1NC(=O)C(C)C,-13.3%,i,2.5%,-2.7%,-37.1,1.5%
NC(CO)C(O)c1ccc([N+](=O)[O-])cc1 (stereo not given),-2.5%,-1.8%,-5.3%,-5.8%,/,-16.6%
CC(=O)c1ccc(OCCCC(=O)N2CCN(S(=O)(=O)c3ccc(C(C)C)cc3)CC2)cc1,/,5.0%,5.4%,/,11.5,-3.9%
O=S(=O)(Cc1c(F)cccc1Cl)c1ncn[nH]1,-1.6%,4.5%,13.8%,1.3%,6.2,1.5%
Cc1ccc(C(=O)NNC(=S)NC(=O)c2ccc(Cl)cc2Cl)cc1,-21.0%,-4.3%,28.6%,-2.5%,-17.3,0.1%
N#C/C(=C\c1ccc(OCc2ccc(Cl)cc2)cc1)C(=O)Nc1cccc(C(=O)O)c1,-14.0%,?,?,-25.8%,-34.8,-8.4%
Cc1cccc(NC(=O)CN2CCOCC2)c1C,-5.5%,6.3%,13.2%,-5.2%,2.1,-11.9%
CC(C)(C)NC(=O)CN(C(=O)CCN1CCCc2ccccc21)C(C)(C)C,-13.7%,-7.9%,?,-1.5%,-14.1,5.9%
Cc1nc(S/C(=C\c2ccc(OCc3ccccc3Cl)cc2)C(=O)O)n[nH]1,-3.6%,-0.4%,?,-0.6%,-18.8,5.9%
Cc1cccc(C(=O)N/N=C/c2ccc[nH]2)c1,-13.4%,-4.5%,2.1%,-1.5%,8.1,-12.7%
CC(=O)N(CCC(c1ccccc1)c1ccco1)Cc1cccs1 (stereo not given),?,-12.9%,-12.2%,6.9%,-5.6,-4.6%
Cc1cn(C2CC(N=[N+]=[N-])C(CO)O2)c(=O)[nH]c1=O (stereo not given),/,/,/,-6.8%,/,-0.4%[60.1 µM]
COc1ccc(CNC(=O)COC(=O)c2ccc(S(=O)(=O)NCc3ccco3)cc2)cc1,/,?,50.1µM*,/,-3.2,?
O=[N+]([O-])c1ccc(S(=O)(=O)Nc2nc3ccccc3nc2Nc2ccccc2)cc1,-9.2%,0.9%,70.1%[activator],6.9%,2.7,3.1%
O=C(/C=C/c1ccc([N+](=O)[O-])cc1)NCc1ccco1,-11.4%,i,1.7%,-3.7%,14.5,-15.1%
CCOc1ccccc1C(=O)N/N=C/c1ccoc1,-11.4%,-6.8%,79.4µM*,-8.4%,-2.6,-28.3%
COc1cc(C2c3cc4c(cc3C(OC3OC5COC(C)O[C@@H]5C(O)C3O)C3COC(=O)C23)OCO4)cc(OC)c1O (stereo not given in full),-6.2%,/,/,4.1%,/,-6.5%[60.1 µM]
CC(=O)N1CCCN(Cc2nc(C3(c4ccc(C)cc4)CCCC3)no2)CC1,-17.0%,-4.3%,32.4%[activator],-1.5%,-1.5,9.3%
CC(C)NC(=O)COC(=O)/C=C/c1ccco1,25.0%,?,79.4µM*,-5.5%,-5.2,-31.8%
Cc1ccccc1-c1nc(-c2ccc(NC(=O)c3ccc(Br)o3)cc2)no1,-10.2%,0.8%,8.6%,-7.4%,26.0,-14.3%
O=C(O)c1cc(=O)c2ccccc2[nH]1,/,-4.8%,-15.9%,3.4%&2.1%&1.1%&1.8%,/,?
CC(=O)Nc1ccc(S(=O)(=O)Nc2nc3ccccc3nc2Nc2ccc(O)c(C(=O)O)c2)cc1,-3.5%,7.7%,20µM*,-1.6%,-1.0,79.4µM*
COc1cc(OC)cc(C(=O)N[C@H](C(=O)OCC(=O)c2ccc3c(c2)NC(=O)CO3)C(C)C)c1,?,-11.4%,-8.5%,-2.4%,-5.9,1.0%
COc1ccc(S(=O)(=O)N2CCN(C(=O)C3COc4ccccc4O3)CC2)cc1 (stereo not given),/,?,10µM*,/,1.0,28.2µM*
C[C@H](NS(=O)(=O)c1ccc(Cl)cc1)C(=O)OCC(=O)c1ccc[nH]1,0.9%,-5.7%,?,-1.7%,3.9,-9.1%
Cc1ccc2oc(C(=O)NCc3ccc(S(N)(=O)=O)cc3)cc(=O)c2c1,-6.8%,-2.7%,-19.8%,0.2%,2.9,-17.9%[60.1 µM]
Cc1ccc(CNC(=O)Cn2cnc(S(=O)(=O)N3CCC(C)CC3)c2)o1,-10.0%,1.3%,-23.8%,-4.0%,-21.7,-6.9%
Cc1cc(C)c(S(=O)(=O)N2CCN(C(=O)C3COc4ccccc4O3)CC2)c(C)c1 (stereo not given),/,-6.2%,-17.8%,/,-8.1,-1.8%
COc1ccccc1NC(=O)NCc1ccccc1F,-16.7%,-6.2%,23.4%,-4.2%,-5.9,7.5%
Nc1ccn([C@@H]2CC[C@H](CO)O2)c(=O)n1,-1.6%[29.3 µM],/,/,-0.6%[21.4 µM],/,1.5%[12 µM]
O=C1NC[C@H](c2ccccc2)N(CC2CCCCC2)C1=O,9.8%,-8.8%,8.3%,0.3%,/,-3.8%
COc1cccc(-c2nc(-c3ccc(NC(=O)c4ccncc4)cc3)no2)c1,-7.9%,-6.9%,?,-15.3%,-14.5,-27.1%
CC(=O)Nc1ccc(S(=O)(=O)N2CCN(C(=O)C3COc4ccccc4O3)CC2)cc1 (stereo not given),-7.4%,-4.4%,106.8%[activator],-4.4%,-6.0,-11.5%
CCOC(=O)c1c(NC(=O)C2c3ccccc3Oc3ccccc32)sc(C(C)=O)c1C,-12.6%,-4.8%,?,-4.1%,10.2,-8.9%
COc1ccc(C2CC(=O)N3CN(c4ccc(C)c(Cl)c4)CSC3=C2C#N)cc1OC (stereo not given),?,4.6%,0.3%,-4.2%,-2.1,-33.6%
CN(C)CCCN(C(=O)CCc1ccccc1)c1nc2ccc(Br)cc2s1,-14.4%,-2.8%,30.4%[activator],-7.8%,?,-10.5%
CC(C)NC(=S)NC(=O)c1ccc(Cl)cc1Cl,-16.6%,1.0%,2.7%,-1.1%,-14.1,-13.1%
O=C(N/N=C/c1ccoc1)c1ccc(Cl)cc1Cl,-7.3%,-9.7%,?,-14.6%,-7.8,-6.7%
CN(C)c1ncc2nc(-c3ccc(F)cc3)c(=O)n(Cc3cccs3)c2n1,/,/,/,4.2%,/,-1.4%[60.1 µM]
O=C(/C=C/c1ccccc1Cl)NCCc1ccc(F)cc1,-13.7%,-13.0%,10.5%,-6.3%,-0.6,-12.0%
CCCC(=O)Nc1nc2c(s1)COc1ccccc1-2,?,4.4%,4.1%,-2.0%,-7.5,-9.9%
NS(=O)(=O)c1cccc(NS(=O)(=O)c2cccc(C(F)(F)F)c2)c1,5.0%,1.6%,40.0%[activator],-12.7%,-11.0,-9.9%
COc1ccccc1NC(=O)C1=C(C)Nc2nnnn2C1c1cccc(C)c1 (stereo not given),-6.9%,-9.7%,-26.3%,-0.5%,0.7,3.7%
Cc1cccc(C(=O)Oc2ccc(/C=N/NC(=O)c3cc(O)cc(O)c3)cc2)c1,?,?,17.8µM*,-17.2%,?,50.1µM*

# Structures above shown as hits in BLM helicase inh.
canonical_smiles	Tb PGK inh	Pol iota inh	BLM helicase inh	RXFP1 antag	Pol kappa inh
CN(Cc1ccccc1)C(=O)COC(=O)/C=C/c1ccco1	-24.7%	?	20µM*	-11.9	?

# Other entries.
SMILES,Anesthetic bind,Tb PGK inh,Pol iota inh,BLM helicase inh,RXFP1 antag,Pol kappa inh
CC(C)[C@H](N)c1cn([C@@H](CO)C(=O)N2CCNCC2)nn1,/,-4.9%,9.3%,/,/,3.4%
Cn1c(=O)[nH]c(=O)c2c1nc1n2CCCN1CCc1ccccc1,-7.6%,2.8%,10.2%,-6.3%,0.8,-5.7%
COc1ccc(-c2nnc(SCCC(=O)O)n2C)cc1OC,31.1%[activator],-9.2%,8.5%,-9.8%,-3.4,-5.3%
CCCCNC(=S)NNc1c(Cl)cc(Cl)cc1Cl,-13.1%,-4.9%,163.0%[activator],1.2%,-12.5,-14.8%
COCCNc1nc(-c2c(C)noc2C)nc2ccccc12,/,/,/,7.4%,/,1.5%[60.1 µM]
Cc1cc(Cl)cc(C)c1OCCn1ccnc1,-5.0%,1.5%,41.7%[activator],-3.1%,9.3,-2.9%

# Single records (already shown):
# Record of Cc1cc(C)c(S(=O)(=O)N2CCN(C(=O)C3COc4ccccc4O3)CC2)c(C)c1 (stereo not given) → Anesthetic bind = /; Tb PGK inh = -6.2%; Pol iota inh = -17.8%; BLM helicase inh = /; RXFP1 antag = -8.1; Pol kappa inh = -1.8%
# Record of Cc1cc(O)c(C=O)c2c1C(=O)Oc1c(C)c(O)c3c(c1O2)C(O)OC3=O (stereo not given) → Anesthetic bind = -8.2%; Tb PGK inh = /; Pol iota inh = /; BLM helicase inh = 38.3%[activator]; RXFP1 antag = /; Pol kappa inh = 10µM*
